# Screening results from PubChem BioAssay.
# Mtb H37Rv: Mycobacterium tuberculosis H37Rv growth inhibition, putative kinase inhibitor library, confirmatory dose response (AID 2842). M. tuberculosis H37Rv growth inhibition; higher % means a stronger effect; some inactives read as strong as hits. 5.2% of 24,000 active. one-dose inhibition, % at 10 µg/mL; IC90 in µg/mL for titrated hits;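 active means confirmed in a dose series; about a fifth of its hits are not listed in these tables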;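 further: bacteria incubated one week before Alamar blue readout; 0% = bacteria only wells and 100% = bacteria with high antibiotic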
# The depositor's hits bear a star. Not all compounds are listed; count on the stated rates, not on these rows.
SMILES,Mtb H37Rv
O=C(CN1N=NC2C(=O)N(c3ccc(Cl)cc3)C(=O)C21)Nc1ccccc1Cl (stereo not drawn),1%
N#Cc1ccc(C(=O)N(CCN2CCOCC2)c2nc3ccccc3s2)cc1,1%
NC(=O)c1cc2cc(Cl)ccc2oc1=Nc1cccc(C(F)(F)F)c1,5%
Clc1cccc2sc(N3CCOCC3)nc12,11%
CCOC(=O)C1=C(C)OC(N)=C(C#N)C1c1ccccc1 (stereo not drawn),6%
CNC(=O)c1ccsc1NC(=O)c1cc2ccccc2oc1=O,63%
COc1ccccc1NS(=O)(=O)c1cc(C)c2[nH]c(=O)cc(C)c2c1,4%
O=C(CSc1ncnc2c1oc1ccccc12)Nc1ccc(OC(F)(F)F)cc1,5%
COC(=O)C1CCN(C(c2ccc(F)cc2)c2sc3nc(C)nn3c2O)CC1 (stereo not drawn),-6%
Cc1ccc(-c2nnc3c4cc5c(cc4n(Cc4ccccc4)cc2-3)OCO5)cc1C,10%
Cc1nc2ccccc2c(=O)n1-c1cccc(NS(=O)(=O)c2cccc([N+](=O)[O-])c2)c1,-9%
CCOc1ccc(/C=C(\C#N)C(=O)Nc2nnc(C(C)C)s2)cc1OC,-6%
Cc1ccc(Nc2ncnc(N)c2[N+](=O)[O-])c(Br)c1,10%
Cc1cccc(-n2nnc3c(=O)n(CC(=O)Nc4ccc5c(c4)OCCO5)cnc32)c1,-11%
CS(=O)(=O)c1ccc(-c2nnc(NC(=O)c3cccc(N4C(=O)CCC4=O)c3)o2)cc1,-6%
Cc1nnc(SCC(=O)N2CCCc3ccccc32)n(N)c1=O,17%
CCOc1ccc(NC(=O)NC2CC(=O)N(c3ccc4c(c3)OCCO4)C2)cc1 (stereo not drawn),-4%
O=C(Nc1nnc(C23CC4CC(CC(C4)C2)C3)s1)c1ccccc1[N+](=O)[O-],4%
C=CCOc1ccc(C2/C(=C(\O)c3ccccc3)C(=O)C(=O)N2CCCn2ccnc2)cc1 (stereo not drawn),-13%
O=C(CN1N=NC2C(=O)N(c3ccc(Cl)cc3)C(=O)C21)Nc1ccccc1F (stereo not drawn),-15%
Cc1nc2c(ccc3nc(NC(=O)c4cccc(C(F)(F)F)c4)sc32)s1,2%
CC(=O)N1CCc2c(sc(NC(=O)c3ccc(N4C(=O)CCC4=O)cc3)c2C(N)=O)C1,-1%
O=C(Nc1nnc(-c2ccc(Br)cc2)o1)C1COc2ccccc2O1 (stereo not drawn),7.3µg/mL*
Nc1nc(SCC(=O)NCc2ccccc2Cl)[nH]c(=O)c1NC(=O)c1ccc(Cl)cc1,-6%

# For convenience, part of the list above:
SMILES,Mtb H37Rv
O=C(CSc1ncnc2c1oc1ccccc12)Nc1ccc(OC(F)(F)F)cc1,5%
COC(=O)C1CCN(C(c2ccc(F)cc2)c2sc3nc(C)nn3c2O)CC1 (stereo not drawn),-6%
Cc1ccc(-c2nnc3c4cc5c(cc4n(Cc4ccccc4)cc2-3)OCO5)cc1C,10%
Cc1nc2ccccc2c(=O)n1-c1cccc(NS(=O)(=O)c2cccc([N+](=O)[O-])c2)c1,-9%
CCOc1ccc(/C=C(\C#N)C(=O)Nc2nnc(C(C)C)s2)cc1OC,-6%
Cc1ccc(Nc2ncnc(N)c2[N+](=O)[O-])c(Br)c1,10%
Cc1cccc(-n2nnc3c(=O)n(CC(=O)Nc4ccc5c(c4)OCCO5)cnc32)c1,-11%
CS(=O)(=O)c1ccc(-c2nnc(NC(=O)c3cccc(N4C(=O)CCC4=O)c3)o2)cc1,-6%
Cc1nnc(SCC(=O)N2CCCc3ccccc32)n(N)c1=O,17%
CCOc1ccc(NC(=O)NC2CC(=O)N(c3ccc4c(c3)OCCO4)C2)cc1 (stereo not drawn),-4%
O=C(Nc1nnc(C23CC4CC(CC(C4)C2)C3)s1)c1ccccc1[N+](=O)[O-],4%
C=CCOc1ccc(C2/C(=C(\O)c3ccccc3)C(=O)C(=O)N2CCCn2ccnc2)cc1 (stereo not drawn),-13%
O=C(CN1N=NC2C(=O)N(c3ccc(Cl)cc3)C(=O)C21)Nc1ccccc1F (stereo not drawn),-15%
Cc1nc2c(ccc3nc(NC(=O)c4cccc(C(F)(F)F)c4)sc32)s1,2%

# More results follow:
SMILES,Mtb H37Rv
CN(c1ccccc1)S(=O)(=O)c1ccc(C(=O)Nc2nccs2)cc1,6%
Nc1nc(SCC(=O)NCCc2ccccc2)[nH]c(=O)c1NC(=O)c1ccc(F)c(F)c1,-1%
O=C(CSc1nnc2ccc(-c3ccncc3)nn12)c1ccc(Cl)cc1,0%
CCOC(=O)c1nn(-c2ccc(OC)cc2)c(=O)c2c(NC(=O)CC)scc12,1%
CCCCSC1=C(C#N)C(c2ccc(OC)cc2)C2=C(CC(C)(C)CC2=O)N1 (stereo not drawn),-4%
Cc1ccc2cc(CCNC(=O)c3cc(Br)ccc3Cl)c(=O)[nH]c2c1C,-1%
CC1CCc2c(sc(NC(=O)c3ccc(-c4nc5ccccc5s4)s3)c2C#N)C1 (stereo not drawn),3%
Cc1cc(OC(=O)c2cccc([N+](=O)[O-])c2)c([N+](=O)[O-])c(=O)[nH]1,5%
O=C(Cn1ccn(-c2ccc(F)c(F)c2)c(=O)c1=O)NCc1ccccc1Cl,-14%
CCOc1ccc(C(=O)Nc2c(N)nc(SCC(=O)NCc3ccccc3Cl)[nH]c2=O)cc1,-7%
COc1ccc(NC(=O)CSC2=N/C(=C\c3ccc4c(c3)OCO4)C(=O)N2c2ccccc2)cc1,15%
O=C(Cc1ccccc1)Nc1nc(-c2cccnc2)cs1,-5%
CCCc1nc(SCc2ccccc2)n[nH]1,22%
Cc1n[nH]c(C)c1S(=O)(=O)Nc1cccc(-c2ccc(=O)n(C)n2)c1,-3%
O=C(CCS(=O)(=O)Cc1ccccc1)Nc1nnc(-c2cccs2)o1,6%
Cc1cc(C)nc(NS(=O)(=O)c2ccc(N3C(=O)c4ccc(C(=O)O)cc4C3=O)cc2)n1,-8%
Cc1ccc(C(=O)NCC(=O)N/N=C/c2cccs2)cc1C,-6%
CCOC(=O)C1CCCN(C(c2ccc(Cl)c(Cl)c2)c2sc3nc(C)nn3c2O)C1 (stereo not drawn),-4%
Nc1nc(SCC(=O)N2CCc3ccccc32)[nH]c(=O)c1NC(=O)c1ccc(F)cc1,-7%
COCCN1C(=O)CC(Sc2ncccc2C(=O)O)C1=O (stereo not drawn),2%
Cc1ccc(-c2c3c(nc4sc(C(=O)Nc5cccc(Br)c5)c(N)c24)CCCC3)o1,5%
COC(=O)c1c(NC(=O)c2ccc(Cc3ccccc3)cc2)sc2c1CCC2,-2%
CC1CCc2sc(NC(=O)c3cc(Cl)cc(Cl)c3)c(C(N)=O)c2C1 (stereo not drawn),-2%
O=C(Nc1sc2c(c1-c1nc3ccccc3s1)CCCC2)c1ccc(Br)cc1F,6%
CCNc1nc(NCC)n2c(SCC(=O)Nc3ccc(OCC)cc3)nnc2n1,0%
O=c1[nH]ncc(N/N=C\c2ccc(O)cc2)c1Br,-1%
FC(F)(F)c1ccccc1Nc1nc(-c2ccccc2)c2cc(Cl)ccc2n1,-2%
Cc1ccc(Cc2cnc(NC(=O)CNc3ccc(C)cc3)s2)cc1,16%
COC(CNc1ncnc2c1cnn2-c1cc(Cl)ccc1C)OC,8%
Cc1cc(C)c(C(=O)Nc2sc3c(c2C#N)CCC(C)C3)c(C)c1 (stereo not drawn),0%
CCOc1ccc(NC(=S)NCCc2cc3ccc(C)c(C)c3[nH]c2=O)cc1,69%
CN(C1CCCCC1)S(=O)(=O)c1ccc(C(=O)Nc2nccs2)cc1,3%
CC(=O)OCn1nnc2ccccc2c1=O,3.3µg/mL*
COc1cccc(NC(=O)Cn2cc(C(=O)c3ccc(F)cc3)c(=O)c3cc4c(cc32)OCO4)c1,15%
Cc1ccccc1C(=O)Nc1cc2c3c(c1)CCC(=O)N3CCC2,9%
CN(Cc1ccccc1)c1nc2c(c(=O)[nH]c(=O)n2C)n1CCOc1ccccc1,13%
COc1ccc(OC)c2[nH]c(=O)c(CCNC(=O)Cc3cccc(C)c3)cc12,7%
O=C(c1ccc([N+](=O)[O-])cc1Cl)N1CCN(c2ccc(N3CCCCC3)nn2)CC1,9%
N#CC1=C(N)OC2=C(C(=O)CC(c3ccccc3)C2)C1C1CCCCC1 (stereo not drawn),7.8µg/mL*
O=C(CCN1C(=O)/C(=C/c2ccccc2)SC1=S)Nc1ccccc1C(=O)O,-8%
O=C(COc1ccc2ccccc2c1)Nc1nc2ccc(S(=O)(=O)N3CCCC3)cc2s1,-16%
Cc1ccc(C(=O)NCCc2nnc3ccc(SCC(=O)Nc4ccc5c(c4)OCO5)nn23)cc1,-10%
COc1ccc(C)c2sc(NNC(=O)c3ccccc3)nc12,4µg/mL*
COCCCNc1nc2c(-c3ccc(C)cc3)nnn2c2ccccc12,-10%
Oc1ccc(-c2[nH]ncc2-c2nc3ccccc3s2)c(O)c1,11%
O=C(Nc1c(C(=O)Nc2ccccc2)oc2ccccc12)c1ccc(Br)o1,0%
N#C/C(=C\c1c[nH]c2ccccc12)C(=O)NC1CCS(=O)(=O)C1 (stereo not drawn),-8%
O=C1NC(=O)/C(=C/c2ccc(C(=O)Nc3ccc(C(=O)O)cc3)cc2)S1,-8%
CCCCN(C)S(=O)(=O)c1ccc(C(=O)Nc2sc3c(c2C#N)CCC(C)C3)cc1 (stereo not drawn),1%
O=C(c1ccccc1)c1sc(NC(=O)C2COc3ccccc3O2)nc1-c1ccccc1 (stereo not drawn),9%
COc1ccc2nc(-c3cccc(NC(=O)c4cccc(C(F)(F)F)c4)c3)cn2n1,52%
Cc1ccc(C)c2[nH]c(=O)c(CCNC(=O)C3CCCCC3)cc12,0%
CCOC(=O)CCCSc1nc2sc(C)c(C)c2c(=O)[nH]1,47%
CC(C)OC(=O)c1ccc(NC(=O)C2COc3ccccc3O2)cc1 (stereo not drawn),7.2µg/mL*
C=CCN(CC=C)S(=O)(=O)c1ccc(C(=O)Nc2nnc(-c3cc(C)ccc3C)o2)cc1,-8%
COc1ccc(C(=O)CSc2nccn(-c3ccc(OC)cc3)c2=O)cc1,2%
Cn1c(=O)c2c(nc(N3CCCC3)n2CCSc2nc3ccccc3s2)n(C)c1=O,2%
C=CCNC(=O)C(=O)Nc1cc2c3c(c1)CC(=O)N3CCC2,-8%
CCOC(=O)c1nn(-c2ccc(F)cc2)c(=O)c2c(NC(=O)c3ccccc3Br)scc12,3%
Cc1ccc(Cn2c(SCC(=O)c3ccc(Cl)cc3)nc3c2c(=O)[nH]c(=O)n3C)cc1,-13%

# (continued)
SMILES,Mtb H37Rv
Cc1cc2cc(CCNC(=O)C(C)(C)C)c(=O)[nH]c2cc1C,3%
Cc1cc(SCC(=O)c2ccccc2)nc(=O)[nH]1,5%
Cc1ccc(NC(=O)Cn2cnc3c(nnn3-c3cccc(F)c3)c2=O)cc1Cl,-2%
O=C(Nc1c(C(=O)Nc2ccc(F)c(F)c2)oc2ccccc12)c1cccc(F)c1,-9%
Nc1nc(SCC(=O)N2CCCCCC2)[nH]c(=O)c1NC(=O)c1ccc(C(F)(F)F)cc1,-20%
CC(C)(C)c1nn2cnnc2n(/N=C/c2cccc(O)c2)c1=O,-19%
O=c1[nH]ncc(N/N=C\c2cccc(Oc3ccccc3)c2)c1Cl,17%
CCCCC(CC)CNc1nc2c(c(=O)[nH]c(=O)n2C)n1CC(O)COc1ccc(C)c(C)c1 (stereo not drawn),-8%
O=C(NCC1CCCO1)C(=O)c1c[nH]c2ccccc12 (stereo not drawn),-3%
CCOC(=O)N1CCN(C2CC(=O)N(c3ccc(NC(C)=O)cc3)C2=O)CC1 (stereo not drawn),-4%
Cc1ccc(-n2ncc3c(SCc4cccnc4)ncnc32)c(C)c1,26%
CCS(=O)(=O)c1cccc(C(=O)Nc2nc(-c3ccc4c(c3)OCO4)cs2)c1,14%
CCN(CC)c1ccc2cc(C(=O)Nc3ccc(F)cc3)c(=O)oc2c1,2%
COc1ccc(C(=O)NCCc2cc3ccc(OC)cc3[nH]c2=O)cc1,15%
CCCCOc1cccc(C(=O)Nc2nc3ccc(S(C)(=O)=O)cc3s2)c1,-3%
CC(=O)c1sc(NC(=O)c2ccc(Cl)cc2)nc1C,-8%
COc1ccc(N2CCN(c3nc4c(c(=O)n(C)c(=O)n4C)n3CCSc3ncccn3)CC2)cc1,2%
Cc1cccc(C(=O)NCCc2cc3c(C)ccc(C)c3[nH]c2=O)c1,11%
Cc1ccc(-n2ncc3c(NNC(=O)c4ccccc4Cl)ncnc32)cc1Cl,-3%
Cc1ccc(NC(=O)CS(=O)(=O)c2cn(Cc3cccc(F)c3)c3ccccc23)cc1,98%
COc1ccccc1C1CC(c2ccc(NS(C)(=O)=O)cc2)=NN1S(=O)(=O)c1ccccc1 (stereo not drawn),3%
O=c1[nH]c2ccccc2c(OCc2ccccc2)c1Br,9%
O=C(O)c1cccnc1SC1CC(=O)N(c2ccc(Cl)cc2Cl)C1=O (stereo not drawn),-11%
Cc1nnc(SCC(=O)N2CCC(C)CC2)n(N)c1=O,-6%

# Part of the list above in order of number of heavy atoms, largest number first:
SMILES,Mtb H37Rv
NC(=O)c1cc2cc(Cl)ccc2oc1=Nc1cccc(C(F)(F)F)c1,5%
CC1CCc2sc(NC(=O)c3cc(Cl)cc(Cl)c3)c(C(N)=O)c2C1 (stereo not drawn),-2%
Cc1nnc(SCC(=O)N2CCCc3ccccc32)n(N)c1=O,17%

# Next part.
SMILES,Mtb H37Rv
CCCc1cc(=O)[nH]c2nnc(SCC(=O)Nc3ccc(Br)cc3)n12,-6%
O=C(CSCC(=O)N1CCCCC1)Nc1nc(-c2ccc3c(c2)OCO3)cs1,67%
O=C(CCn1c(=O)sc2ccccc21)Nc1ccccc1F,15%
COc1ccc(C(=O)Nc2c(N)nc(SCC(=O)Nc3ccc4c(c3)OCO4)[nH]c2=O)cc1,17%
O=c1ccc(-c2ccccc2)nn1CCNS(=O)(=O)c1ccc(Cl)cc1,-9%
COc1ccc(-c2nnc3c4cc(OC)ccc4n(Cc4cccc(F)c4)cc2-3)cc1,74%
O=C(CSc1nncc(=O)[nH]1)Nc1nc2ccccc2s1,35%
C=CCc1c(C)c(C#N)c2[nH]c3ccccc3n2c1=O,31%
C=C(C)Cn1c(Sc2ccc(C)cc2)nc2c1c(=O)[nH]c(=O)n2C,2%
Cn1c(=O)[nH]c(=O)c2c1nc(N1CCN(Cc3ccc(F)cc3)CC1)n2CCc1ccccc1,4%
